Assay outcomes (PubChem)
PINK1 modulator: A Quantitative High throughput Screen to Identify Chemical Modulators of PINK1 Expression | PINK1 immunofluorescence, high-content cytometry, 24 h | Potency, µM (titrated, usually from 76.6 µM), without a hit: at the top dose activation (PINK1 increase), most hits filed as activators | hit rate 0.2% among 410,000 | AID 624263, 2012; active = well fitted activation curve with a large enough effect; inconclusive = small, poorly fitted or top-dose-only effect; inactive = flat fitted curve, though single readings scatter; cell line not stated here;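 note: potency is the fitted concentration of half-maximal effect; % of control where 0% means no effect; nearly all actives have a fitted effect of over 65% in size; a mitochondrial uncoupler was the plate control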
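Cells are seeded, rested 12 hours, then given compound at five concentrations or DMSO for 24 hours. After fixation, blocking and antibody staining, PINK1 amount and mitochondrial localization are scored; CCCP serves as control.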
TRPML1 ag: qHTS for Agonists of the Human Mucolipin Transient Receptor Potential 1 (TRPML1); activation, % (test concentration not listed); hit rate 0.12% among 410,000; TRPML1-expressing cells, Ca2+ dye fluorescence, FDSS; host cell line not named in the record; reference of the full effect not given here; in the data active = activation above about 50%; inconclusive = about 30% to 50%; inactive = below about 30%; note: 0% is about no effect; the text of the record puts the active cut at 80%
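Tet-induced TRPML1-DL cells, 1,500 per well, cultured overnight, were loaded with a no-wash Ca2+ dye for 45–90 min. Calcium fluorescence was recorded on the FDSS for 110 s after compound addition, before the EC80 agonist (4 uM 54-4) was added.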
D2 PAM: Beta-Arrestin HTS for Positive Allosteric Modulators of the Human D2 Dopamine Receptor: Potentiators | D(2) dopamine receptor (Homo sapiens), P14416 | DiscoveRx D2 beta-arrestin cells, luminescence, 90 min; 100% = 57 uM dopamine signal | potentiation, % (concentration not given with the values) | hit rate 0.23% among 360,000; active = potentiation of 50% or more; inconclusive = 30% to 50%; inactive = 30% or less;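 note: compound concentration not given in the record; tested on top of an EC20 dose of dopamine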
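D2 cells co-treated with compound plus 50 nM dopamine (EC20) for 90 min at 37 deg C to detect potentiation. Beta-arrestin recruitment was read as enzyme-fragment luminescence after 1 h at ambient temperature. Full response was set by 57 uM dopamine.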
TRPML1 blocker: qHTS for Inhibitors of the Human Mucolipin Transient Receptor Potential 1 (TRPML1). Mucolipin-1 (Homo sapiens), Q9GZU1. hit rate 0.02% among 390,000. activity change, negative = inhibition, % (no concentration beside the values). TRPML1-inducible cells, Ca2+ dye fluorescence, FDSS; hits give low values; inhibition of EC80 agonist-evoked calcium signal; in the data active means activity change below about -50%; inconclusive means about -30% to -50%; inactive means above about -30%;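 note: stimulus is agonist 54-4 at its EC80 concentration; % is set by controls: 0 for no effect and ±100 for the full control effect; compound concentration not given in the record; the text of the record puts the active cut at -80%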
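Tet-induced TRPML1-DL cells loaded with Ca8 no-wash calcium dye were read kinetically on FDSS. Compound addition was followed by EC80 agonist 54-4 (4 uM final); inhibition was read over 110 s.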
Six1-Eya2 blk: qHTS Assay for Inhibitors of the Six1/Eya2 Interaction; Homeobox protein SIX1 (Homo sapiens) + Protein phosphatase EYA2 (Homo sapiens), …; AlphaScreen GST-Six1/His-Eya2 binding, biochemical; hits give low values; control for the full effect not named in the record; activity change, % (test concentration not listed); hit rate 0.56% among 360,000; in the data active = activity change below about -65%; inconclusive = about -30% to -65%; inactive = above about -30%; note: % is set by controls: 0 for no effect and ±100 for the full control effect; compound concentration not given in the record
Target sequence (O00167 whole entry, looked up): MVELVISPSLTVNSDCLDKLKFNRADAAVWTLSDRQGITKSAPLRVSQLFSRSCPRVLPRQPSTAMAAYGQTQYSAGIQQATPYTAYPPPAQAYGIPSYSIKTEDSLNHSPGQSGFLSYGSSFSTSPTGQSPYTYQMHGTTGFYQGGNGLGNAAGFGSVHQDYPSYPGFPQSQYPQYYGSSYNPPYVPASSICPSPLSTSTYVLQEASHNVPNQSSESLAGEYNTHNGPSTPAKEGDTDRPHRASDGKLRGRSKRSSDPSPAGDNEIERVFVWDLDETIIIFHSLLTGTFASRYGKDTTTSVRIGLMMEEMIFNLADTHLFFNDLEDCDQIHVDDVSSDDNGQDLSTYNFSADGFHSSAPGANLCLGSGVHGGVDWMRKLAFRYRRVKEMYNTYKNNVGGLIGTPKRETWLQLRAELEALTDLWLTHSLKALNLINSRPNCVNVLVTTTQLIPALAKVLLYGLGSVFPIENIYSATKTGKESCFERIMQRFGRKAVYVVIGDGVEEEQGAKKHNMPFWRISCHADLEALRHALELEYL
Target sequence (Q15475 whole entry, looked up): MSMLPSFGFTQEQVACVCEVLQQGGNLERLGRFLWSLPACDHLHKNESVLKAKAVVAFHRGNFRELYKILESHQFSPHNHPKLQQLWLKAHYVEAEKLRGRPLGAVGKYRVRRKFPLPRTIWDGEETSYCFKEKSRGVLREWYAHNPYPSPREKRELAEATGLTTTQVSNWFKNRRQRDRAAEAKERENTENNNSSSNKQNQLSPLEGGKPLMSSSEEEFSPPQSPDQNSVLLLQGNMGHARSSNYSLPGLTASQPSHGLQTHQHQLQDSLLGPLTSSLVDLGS
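AlphaScreen with GST-Six1 and His-Eya2 (5X mix: 250 nM and 500 nM), glutathione donor and nickel acceptor beads; buffer 50 mM Tris pH 8.0, 300 mM NaCl, 1 mM TCEP; 1 h at 37 C in the dark.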
D2 agonist: Beta-Arrestin HTS for Positive Allosteric Modulators of the Human D2 Dopamine Receptor: Agonists; DiscoveRx PathHunter D2 beta-arrestin, luminescence, 90 min; 100% = 57 uM dopamine signal; hit rate 0.084% among 360,000; activation, % (no concentration beside the values); D(2) dopamine receptor (Homo sapiens), P14416; in the data active = activation above about 40%; inconclusive = about 15% to 40%; inactive = below about 15%; note: compound concentration not given in the record; the text of the record calls up to 30% inactive
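DiscoveRx PathHunter D2 beta-arrestin cells (2,100/well) attached overnight, then compound-stimulated 90 min at 37 C in HBSS/10 mM HEPES/0.1% Tween-20 buffer; beta-galactosidase complementation read by luminescence after 1 h at ambient temperature. Dopamine 57 uM final (EC100) as control.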
An asterisk follows results filed as active; ? = inconclusive; nt = no result given; [ ] = remark or other dose.

Results follow in this order: D2 PAM	TRPML1 blocker	TRPML1 ag	Six1-Eya2 blk	PINK1 modulator	D2 agonist
O=C(CSc1nnc(NC(=O)c2c(F)cccc2F)s1)NCc1ccc(F)cc1
    -8	-5	1.1	27	2.6%	3.9
Cc1ccc(S(=O)(=O)NN=Cc2c(O)ccc3ccccc23)cc1
    -7	-1	-0.9	-12	1.4%	-6.4
COc1ccc(CNC(=O)c2cn(Cc3ccccc3OC)c(=O)s2)cc1
    -5	nt	0.7	2	1.1%	-0.9
COc1ccc(-c2nnc(SCc3cc(C)ccc3C)n2N)cc1
    -3	35	-0.3	0	nt	-2.1
O=C(CC1SC(N2CCCCC2)=NC1=O)Nc1cccc(C(=O)NCc2ccc(F)cc2)c1 (stereo unspecified)
    -11	15	1.3	-1	2.1%	0.5
OCC[C@@H]1C[C@H](O)[C@@H](O)[C@]2(Cc3ccccc3O2)O1
    -1	-4	-0.3	-3	-1.1%	-2.1
CC(C)(C)OC(=O)N1CCCC(C(=O)Nc2cccc(C(=O)N3CCCCC3)c2)C1 (stereo unspecified)
    nt	-12	-0.7	9	0.2%	0.4
CCn1c(SCc2ccc(C(=O)Nc3cc(C)cc(C)c3)cc2)nnc1-c1ccncc1
    -2	-5	1.5	0	2.3%	-1.4
Cc1ccc(NC(=O)CN2CCCC2)cc1Br
    -11	26	3.2	5	-0.9%	-2.2
Cc1ccc(OCC(=O)N2CCN(S(=O)(=O)c3ccc(Cl)s3)CC2)cc1C
    -3	-13	0.8	1	-0.8%	0.9
CSc1ccccc1OCc1cc(C(=O)N(Cc2nccn2C)C(C)C)no1
    -9	-16	-0.5	-9	-0.5%	-0.1
COc1ccc(CNC(=O)CN2C(=O)C3CCCN3c3ncc(Cl)cc32)cc1 (stereo unspecified)
    -5	-17	1.4	-4	0.5%	-0.7
O=C(NCc1cccs1)C1CC(c2ccc(F)cc2)=NO1 (stereo unspecified)
    -7	-15	0.9	3	5.2%	-1.9
CCO[C@H]1OC(C(=O)O)=C[C@@H](c2cn(C(C)=O)c3ccccc23)[C@@H]1CCCO
    -5	-20	1.6	3	-1.0%	-3.5
CN(CC(=O)Nc1ccc(Cl)cc1)S(=O)(=O)c1ccc2c(c1)n(C)c(=O)c(=O)n2C
    -7	45	0.5	3	2.6%	-8.4

Three compounds from above, sorted by their value in D2 PAM, lowest first.
structure | D2 PAM | TRPML1 blocker | Six1-Eya2 blk | D2 agonist
Cc1ccc(NC(=O)CN2CCCC2)cc1Br | -11 | 26 | 5 | -2.2
O=C(NCc1cccs1)C1CC(c2ccc(F)cc2)=NO1 (stereo unspecified) | -7 | -15 | 3 | -1.9
COc1ccc(-c2nnc(SCc3cc(C)ccc3C)n2N)cc1 | -3 | 35 | 0 | -2.1

Remaining list, next part:
Results follow in this order: D2 PAM	TRPML1 blocker	TRPML1 ag	Six1-Eya2 blk	PINK1 modulator	D2 agonist
CCS(=O)(=O)N1CC(=O)N(c2ccc(C)c(C)c2)C(C)(C(=O)NC2CCCCC2)C1 (stereo unspecified)
    nt	-1	0.2	nt	0.4%	nt
CC12CC(NC(=O)N1c1cccc(C(=O)N3CCN(c4ccccc4F)CC3)c1)c1ccccc1O2 (stereo unspecified)
    -9	11	2.3	-1	-1.7%	-2.5
CCn1ccc2cc(S(=O)(=O)N3CCCN(C(=O)Nc4cc(Cl)ccc4C)CC3)ccc21
    nt	-22	1.7	nt	-0.7%	nt
COc1cc2cc(C(=O)N3CCC(Cc4ccccc4)CC3)[nH]c2cc1OC
    -9	-9	-0.8	-8	9.0%	1.3
O=c1c(CN2CCN(c3ccccn3)CC2)coc2ccccc12
    19	-16	0.8	12	0.0%	?
CCN(CC(=O)Nc1c(F)cccc1F)C(=O)c1ccc(C#N)cc1
    -6	2	3.7	8	-0.1%	-2.8
COc1ccccc1OCCCOc1ccc([N+](=O)[O-])cc1Cl
    3	5	2.3	-4	0.9%	-3.5
Cc1nn(-c2nc3ccccc3[nH]2)c(=O)c2ccccc12
    0	-1	-0.1	-3	-1.8%	2.4
COc1ccc(OC)c(N(CC(=O)NCCSCc2ccc(C)cc2)S(C)(=O)=O)c1
    -6	-10	0.8	13	-1.1%	3.2
OCCNCc1cc(Br)ccc1OCc1ccc(Cl)cc1
    -36	-18	1.0	6	1.6%	-2.9
COC(=O)c1c(C)n(-c2ccccc2)c2ccc(O)cc12
    -9	-2	1.0	-11	8.6%[38.3 µM]	-1.8
CC1=NN(c2ccccc2)C(=O)C1C=Nc1ccccc1O (stereo unspecified)
    -12	6	-0.9	-27	-2.4%	-2.6
O=C(NCCN1CCCCC1)/C(=C/c1ccco1)NC(=O)c1ccccc1
    -3	9	-0.3	-2	-0.7%	-1.3
COCCn1c(SCC(=O)NCC(c2ccccc2)N(C)C)nc2sc3c(c2c1=O)CCC3 (stereo unspecified)
    -25	-17	0.9	-4	-0.5%	-6.0
CCc1ccc(C(C(=O)NC(C)(C)CC)N(Cc2ccco2)C(=O)Cn2nnc3ccccc32)cc1 (stereo unspecified)
    -13	0	4.8	-6	7.1%	-1.2
CCc1noc(C)c1C(=O)OCC(=O)N(CCOC)c1c(N)n(Cc2ccccc2)c(=O)[nH]c1=O
    -11	-10	-0.3	7	1.0%	-1.1
O=C(CCn1c(=O)[nH]c2ccsc2c1=O)N1CCN(Cc2ccc3c(c2)OCO3)CC1
    -30	2	-0.1	-4	-1.6%	-1.8
COc1cccc(NC(=O)COC(=O)C2CCN(S(=O)(=O)c3cccs3)CC2)c1
    -1	-20	1.3	0	1.1%	4.5
Nc1c(C(=O)NC2CCCC2)c2nc3ccccc3nc2n1/N=C/c1cccnc1
    1	35	0.4	-4	15%	0.2
CCOC(=O)c1cccc(NC(=O)c2cnn(-c3ccccc3)c2-n2cccc2)c1
    nt	21	-0.2	nt	1.9%	nt
COc1ccc(/C=N/NC(=O)c2[nH]c3ccc(Br)cc3c2-c2ccccc2)cc1
    -5	47	1.2	-2	6.7%	0.3
C/C(=N\OCC(=O)N/N=C/c1ccccc1O)c1cccs1
    -7	46	2.5	?	-0.7%	-2.5
CC(C)C[C@H]1CN(CCCC[C@H]2CNC(=O)C(=O)N2CCc2ccccc2)C(=O)C(=O)N1CCc1ccc(O)cc1
    nt	nt	-0.4	2	1.2%	nt
COc1cc2[nH]c(=O)n(CCCC(=O)N3CC=C(c4ccccc4)CC3)c(=O)c2cc1OC
    -1	10	0.2	-29	5.1%	-2.7
COC(=O)c1cccc(N(CC(=O)NC2CCCC2)C(=O)CCC(=O)Nc2cc(C)on2)c1
    -1	9	3.1	-4	1.0%	-0.3
CS(=O)(=O)c1ccccc1C(=O)Nc1cc(Cl)ccc1-n1cncn1
    4	19	-0.9	5	0.6%	0.7
Cc1cc(C)c(NC(=O)CSc2nccn2C)c(C)c1
    -9	30	0.5	8	2.8%	2.8
CC(C)(C)OC(=O)NCCCCCNC(=O)c1ncn2c1c(=O)[nH]c1ccccc12
    4	0	-0.2	-21	3.7%	-1.9
COc1ccccc1-n1cnnc1SCC(=O)NCc1cccs1
    -11	-2	-0.3	5	0.1%	-1.7
CCOc1ccc(C(c2c(NC(=O)c3ccccc3)sc(C)c2C)N2CCN(CCO)CC2)cc1 (stereo unspecified)
    -1	2	1.3	-29	4.5%	0.7
O=S(=O)(N=S(N1CCCCC1)N1CCCCC1)c1ccccc1
    -11	-14	-0.1	1	0.6%	-1.8
Cc1onc(-c2c(F)cccc2Cl)c1C(=O)NNC(=O)C1CCN(Cc2ccccc2)CC1
    -6	-1	-0.3	-1	0.9%	2.9
CC(=O)c1cnn(-c2cc(Oc3ccccc3C)ncn2)c1C
    -8	16	1.4	12	1.0%	1.6
CC(=O)c1ccn(S(=O)(=O)c2ccccc2)c1
    4	10	-0.6	17	-0.1%	-2.6
Cc1ccc(S(=O)(=O)c2c(C)nn(C(C)(C)C)c2OC(=O)c2ccc(Br)o2)cc1
    -4	6	-1.0	-5	-1.9%	-4.0
CSc1nsc(SC)c1C(=O)N1CCN(S(=O)(=O)c2ccc(C)cc2)C1C (stereo unspecified)
    -10	1	1.9	12	-0.7%	-2.6
O=C(Nc1ccc2c(c1)OCCO2)c1cccnc1
    10	-19	3.6	0	-3.1%	-1.8
C=CCn1c(=NC(=O)c2cccs2)sc2cc(NC(C)=O)ccc21
    -4	1	-0.4	2	17%	0.2
CC1CC(C)CN(C(=O)COC(=O)c2ccc3c(c2)OCO3)C1 (stereo unspecified)
    -1	-13	0.0	2	0.2%	-1.5
Cc1cc(C)c(S(=O)(=O)Nc2ccc(N(C)C)cc2)c(C)c1-n1cnnn1
    11	-23	0.3	8	-1.6%	4.6
CC1=C(C(=O)Nc2cccc(Cl)c2)C2(CCCCCC2)OC1=O
    nt	-21	-0.3	nt	0.0%	nt
COc1ccc(-c2nc3n(n2)C(c2ccc(OC)c(OC)c2)C(C(=O)Nc2cccnc2)=C(C)N3)cc1 (stereo unspecified)
    nt	0	1.4	nt	0.1%	nt
O=C1NCCNC(=O)c2ccccc2OCCOc2ccccc21
    -2	3	1.6	5	2.0%	-4.7
CCOC(=O)c1c(-c2ccc(C)o2)csc1NC(=O)COC(=O)c1ccc(NC(N)=O)cc1
    ?	-13	0.0	4	10%	4.7
COc1ccc(C2=NN(C(=O)CCC(=O)O)C(c3ccc(F)cc3)C2)cc1 (stereo unspecified)
    -1	-4	0.0	6	-0.3%	-3.0
O=C(Cc1ccc(F)cc1)NC1CCCCCC1
    -1	42	-0.2	8	0.3%	-2.8
